PINK1 modulator – A Quantitative High throughput Screen to Identify Chemical Modulators of PINK1 Expression; Potency, µM (titrated, usually from 76.6 µM), for the others: top-dose activation (PINK1 increase), usual class: activators; PINK1 immunofluorescence, high-content cytometry, 24 h; 410,000 tested, 0.2% active; active = well fitted activation curve with a large enough effect; inconclusive = small, poorly fitted or top-dose-only effect; inactive = flat fitted curve, though single readings scatter; cell line not stated here;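 further: potency means the concentration at half of the fitted maximal effect; % of control where 0% means no effect; nearly all actives have a fitted effect of over 65% in size; a mitochondrial uncoupler was the plate control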
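Stable cell line, 250 cells/well, 12 h attachment; compounds pinned at 5 concentrations, 24 h; CCCP control. Fixed with nuclear dye, primary antibodies 12 h at 10 degrees C, secondary plus cell stain; laser-scanning cytometer read.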
TRPML1 inh – qHTS for Inhibitors of the Human Mucolipin Transient Receptor Potential 1 (TRPML1); 390,000 tested, 0.02% active; Mucolipin-1 (Homo sapiens), Q9GZU1; TRPML1-inducible cells, Ca2+ dye fluorescence, FDSS; stronger effect = lower value; inhibition of EC80 agonist-evoked calcium signal; activity change, negative = inhibition, % (test concentration not listed); AID 624415, 2012; in the data active means activity change below about -50%; inconclusive means about -30% to -50%; inactive means above about -30%;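 further: stimulus is agonist 54-4 at its EC80 concentration; on the % scale 0 is the no-effect control and ±100 the full control effect; compound concentration not given in the record; the text of the record puts the active cut at -80%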
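Tet-induced TRPML1-DL cells loaded with Ca8 no-wash calcium dye were read kinetically on FDSS. Compound addition was followed by EC80 agonist 54-4 (4 uM final); inhibition was read over 110 s.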
TRPV1 PAM – HTS Assay for Compounds that Act as Potentiators of the Vanilloid Receptor 1 | TRPV1-expressing cells, Fluo-8 calcium influx, capsaicin EC20 potentiation; host cell line not named in the record; control for the full effect not named in the record | potentiation, % at 8.33 µM | 320,000 tested, 0.02% active | AID 540277, 2011; active means potentiation above 80%; inconclusive means 30% to 80%; inactive means below 30%; further: 0% is about no effect
Target sequence (Q8NER1 whole entry, looked up): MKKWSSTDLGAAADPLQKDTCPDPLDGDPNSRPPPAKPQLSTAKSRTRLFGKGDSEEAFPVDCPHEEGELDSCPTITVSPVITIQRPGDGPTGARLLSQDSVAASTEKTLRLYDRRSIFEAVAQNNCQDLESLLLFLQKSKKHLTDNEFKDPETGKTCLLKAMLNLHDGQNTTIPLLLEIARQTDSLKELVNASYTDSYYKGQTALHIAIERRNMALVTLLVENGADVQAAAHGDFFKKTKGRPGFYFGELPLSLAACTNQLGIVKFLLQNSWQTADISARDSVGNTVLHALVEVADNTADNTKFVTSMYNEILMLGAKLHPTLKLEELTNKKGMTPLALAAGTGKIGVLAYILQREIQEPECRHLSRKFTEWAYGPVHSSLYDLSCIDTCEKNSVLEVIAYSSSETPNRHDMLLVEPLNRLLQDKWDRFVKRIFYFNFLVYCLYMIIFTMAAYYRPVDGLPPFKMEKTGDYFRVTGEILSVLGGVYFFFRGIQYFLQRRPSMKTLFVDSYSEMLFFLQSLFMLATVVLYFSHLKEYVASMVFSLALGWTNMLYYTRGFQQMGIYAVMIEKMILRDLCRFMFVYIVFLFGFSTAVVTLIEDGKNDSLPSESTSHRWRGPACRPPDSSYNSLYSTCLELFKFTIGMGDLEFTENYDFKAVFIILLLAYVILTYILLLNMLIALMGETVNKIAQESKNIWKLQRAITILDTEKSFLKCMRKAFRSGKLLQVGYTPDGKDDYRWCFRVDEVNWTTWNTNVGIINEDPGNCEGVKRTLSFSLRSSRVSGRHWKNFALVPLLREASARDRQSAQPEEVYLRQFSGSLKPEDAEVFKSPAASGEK
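Cells expressing TRPV1 were dye-loaded with Fluo-8 and read kinetically: 10 s baseline, 3 min after compound (agonist portion), then 2 min after EC20 capsaicin (allosteric enhancer portion). Calcium-bound dye fluorescence at 480/520 nm.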
Menin MLL FP FL – qHTS Assay for Inhibitors Targeting the Menin-MLL Interaction in MLL Related Leukemias: Competition With Fluorescein Labeled MLL-derived Peptide. Fluorescence polarization, fluorescein-MLL peptide displacement from menin. FP activity change, % at 61.4 µM. 290,000 tested, under 10 active. AID 1766, 2009; inconclusive = falling polarisation curve, or a change in total fluorescence; inactive = total fluorescence flat and polarisation flat or rising; no compound was filed as active; the % refers to the polarisation; negative = inhibition;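 further: % of control where 0% means no effect; inhibitors lower the polarisation; unlabelled MLL peptide was the positive control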
Sfp PPTase inh – qHTS Assay for Inhibitors of Bacillus subtilis Sfp phosphopantetheinyl transferase (PPTase). Biochemical Sfp PPTase activity, qHTS. Potency, µM, inactives show max response, negative = inhibition, actives largely listed as inhibitors. 310,000 tested, 3.5% active. AID 1490, 2009; active means well fitted inhibition curve with a large enough effect; inconclusive means small, poorly fitted or top-dose-only effect, or another doubt; inactive means no such curve, though single readings can be large or run the other way;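 further: the enzyme is Sfp with the accession as filed and its product quenches rhodamine fluorescence; potency means the concentration at half of the fitted maximal effect; 0% = enzyme reaction without inhibitor and -100% = no enzyme wells; top concentration of the series not given in the record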
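Compounds were incubated with enzyme (final 15 nM) for 15 min at room temperature before substrate addition started the reaction. Fluorescence at 525 nm excitation, 598 nm emission was recorded immediately and after 30 minutes.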
ClpP mod – qHTS Assay for Activators of ClpP; ATP-dependent Clp protease proteolytic subunit (Bacillus subtilis (strain 168)), P80244; purified B. subtilis ClpP, FRET peptide cleavage, 20 min; Potency, µM (doses to about 57.5 µM), inactives show at the top dose activity change, negative = active; 340,000 tested, 1.9% active; active = well fitted falling curve with a large enough effect; inconclusive = small, poorly fitted or top-dose-only effect; inactive = no such curve, though single readings can be large or run the other way; further: potency means the concentration at half of the fitted maximal effect; the source files actives as falling curves though it sought activators and does not explain the sign; nearly all actives have a fitted effect of over 65% in size; many hits overshoot -100%
Target sequence (P80244 whole entry, looked up): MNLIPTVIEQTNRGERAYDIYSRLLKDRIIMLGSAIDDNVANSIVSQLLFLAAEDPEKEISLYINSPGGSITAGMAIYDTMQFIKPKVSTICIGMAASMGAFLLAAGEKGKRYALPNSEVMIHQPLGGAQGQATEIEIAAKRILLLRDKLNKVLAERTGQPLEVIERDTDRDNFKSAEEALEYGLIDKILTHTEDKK
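Buffer: 100 mM Tris/HCl pH8, 100 mM KCl, 0.05% low protease BSA, 2.5% glycerol, 0.01% Tween-20. ClpP 10 microg/mL final; 20 min RT; delta FRET normalized to ADEP and DMSO controls.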
TRPML1 ag – qHTS for Agonists of the Human Mucolipin Transient Receptor Potential 1 (TRPML1); TRPML1-expressing cells, Ca2+ dye fluorescence, FDSS; host cell line not named in the record; reference of the full effect not given here; activation, % (concentration not given with the values); 410,000 tested, 0.12% active; in the data active = activation above about 50%; inconclusive = about 30% to 50%; inactive = below about 30%; further: 0% is about no effect; the text of the record puts the active cut at 80%
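Kinetic FDSS Ca2+ read in Tet-induced TRPML1-DL cells (ABD Ca8 dye plus quencher, 45-90 min RT loading): baseline, then compound, then 110 s agonist window; EC80 agonist 54-4 at 4uM final added afterwards for a 110 s antagonist window.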
* hit, by the source's call; ? = inconclusive; / = no result given; & = joins results of further samples; [ ] = another dose, or the depositor's remark.

SMILES | PINK1 modulator | TRPML1 inh | TRPV1 PAM | Menin MLL FP FL | Sfp PPTase inh | ClpP mod | TRPML1 ag
COC(=O)c1cc(NC(=O)c2nn(C)c(=O)c3ccccc23)cc(C(=O)OC)c1 | -0.4% | -9 | 4 | -11 | 5% | -0.8% | 0.4
O=C(Nc1ccc(SC(F)F)cc1)c1cc(-c2cccs2)on1 | 0.0% | -14 | / | / | / | -8.0% | -0.5
OCCNc1nc(-c2ccccc2)c2cc(Cl)ccc2n1 | -1.6% | -7 | 2 | 1.9 | -1% | / | 2.2
Cc1ccc(-n2c(=O)c3c(cnn3C)n(Cc3ccccc3F)c2=O)cc1 | -0.2% | -10 | / | / | / | -3.3% | 1.3
Cc1ccc2c(c1)CN1CN2Cc2cc(C)ccc21 | -1.1% | 3 | 15 | -0.4 | 8% | 1.0% | -0.5
O=C(NC1CCN(Cc2ccccc2)CC1)c1c(Cl)cccc1Cl | 0.6% | / | 2 | 3.8 | 3% | -1.1% | /
CC(=O)Nc1ccc(S(=O)(=O)N(CC(=O)NCC2CCCO2)Cc2ccccc2Cl)cc1 (centres undefined) | 2.7% | -3 | / | / | / | 2.1% | -0.6
Cc1ccc(-c2nn3c(-c4cccc(Cl)c4)nnc3s2)cc1 | / | / | -4 | 2.8 | 14% | / | /
CCOc1ccc(C2=CSC3=NCCN23)cc1Cl | -0.8% | 0 | 6 | 3.8 | ? | -0.8% | -1.3
C[C@H](CO)N1C[C@H](C)[C@@H](CN(C)S(=O)(=O)c2cccs2)Oc2ccc(NC(=O)Nc3ccc4c(c3)OCO4)cc2C1=O | 0.7% | 2 | / | / | / | -2.3% | -0.5
C/C(=C/C(=O)Nc1cccc(F)c1)N1CCCC1 | -0.1% | -14 | -15 | 1.5 | 13% | / | 1.7
COc1ccccc1N1CCN(S(=O)(=O)c2cnc[nH]2)CC1 | -0.7% | -3 | / | 4.2 | -1% | 0.2% | -0.5
O=[N+]([O-])c1ccc(S(=O)(=O)CC(CN2CCOCC2)N2CCOCC2)cc1 (centres undefined) | -1.4% | 13 | 5 | 0.2 | ? | / | 0.8
CCc1noc(C)c1C(=O)Nc1ncc(C)s1 | 12%[38.3 µM] | -4 | -12 | 22 | 11% | -0.4% | 0.6
CCOC(=O)c1cccc(NC(=O)c2cc3c(=O)n(Cc4ccccc4)ccc3nc2C)c1 | 2.7% | -5 | / | / | / | 4.6% | 2.1
COc1ccc(CNC(=O)CCc2c(C)nc3ncnn3c2C)cc1 | -0.3% | -1 | 7 | 3.0 | -3% | 4.9% | 0.8
CN1CCN(C(=O)c2cnn(-c3ccccc3)c2NC(=O)c2ccccc2F)CC1 | -1.1% | 4 | 2 | 0.0 | 11% | -1.0% | -1.0
COc1ccc(-c2[nH]c(-c3ccc(SC)cc3)nc2SCC(=O)Nc2nccs2)cc1 | ? | 17 | 2 | 5.5 | ? | 8.7% | 1.8
CCCCn1cc(S(=O)(=O)c2ccc(Cl)cc2)c(=O)c2cc(F)c(N3CCCC(C)C3)cc21 (centres undefined) | 1.8% | -17 | / | / | / | -15% | 0.1
Nc1nnc(SCC(=O)c2ccco2)s1 | 1.1% | -5 | 21 | 4.7 | ? | 0.1% | -0.5

Ordered by SMILES length (low to high): part of the list above.
SMILES | PINK1 modulator | TRPML1 inh | TRPV1 PAM | Menin MLL FP FL | Sfp PPTase inh | ClpP mod | TRPML1 ag
CCc1noc(C)c1C(=O)Nc1ncc(C)s1 | 12%[38.3 µM] | -4 | -12 | 22 | 11% | -0.4% | 0.6
C/C(=C/C(=O)Nc1cccc(F)c1)N1CCCC1 | -0.1% | -14 | -15 | 1.5 | 13% | / | 1.7
CN1CCN(C(=O)c2cnn(-c3ccccc3)c2NC(=O)c2ccccc2F)CC1 | -1.1% | 4 | 2 | 0.0 | 11% | -1.0% | -1.0

The list continues.
SMILES | PINK1 modulator | TRPML1 inh | TRPV1 PAM | Menin MLL FP FL | Sfp PPTase inh | ClpP mod | TRPML1 ag
Cc1cc(NC(=O)C(C)SCC(=O)Nc2nnc(CC(C)C)s2)no1 (centres undefined) | 0.1% | 3 | 2 | / | / | 1.5% | -0.7
O=C(NCc1ccccc1Cl)C(=O)NCC(c1cccs1)S(=O)(=O)c1ccccc1 (centres undefined) | 2.6% | 5 | / | / | / | -0.8% | 0.3
O=C(/C=C/c1ccccc1)Nc1cccnc1Oc1ccccc1F | 4.2% | -20 | -4 | 0.5 | 23% | / | 2.5
Cc1cccc(C)c1NC(=S)NNc1ncc(C(F)(F)F)cc1Cl | 0.3% | 40 | -4 | -4.6 | 16% | -1.9% | 1.0
Cc1cc(C)c(S(=O)(=O)N2CCCCCC2)cc1Br | 2.3% | 25 | -2 | 3.8 | 2% | / | 0.3
CCCc1cc(=O)[nH]c(/N=C(\N)Nc2ccccc2)n1 | 0.6%[38.3 µM] | -1 | 8 | 2.0 | 20% | -0.4% | -0.5
Cc1ccc(CN2CCSc3ccc(C(=O)N4CCOCC4)cc32)cc1 | 1.1% | -16 | -21 | / | -9% | 3.7% | -0.7
Cc1ccc(SCC(=O)NCc2ccccc2C)cc1 | -0.8% | / | -9 | 0.2 | 0% | -0.4% | /
COc1ccc(C2(c3ccc(OC)cc3)NC(=O)N(CC(=O)N(C)C3CCC(C)CC3)C2=O)cc1 (centres undefined) | 1.0% | -3 | 18 | / | / | -0.9% | 1.7
COC(=O)c1cccc(NC(=O)c2ccc3c(c2)C(=O)N(Cc2cccnc2)C3=O)c1 | 1.7% | 0 | -3 | / | -8% | 2.5% | 0.3
Cn1c(SCC(=O)Nc2ccccc2)nc2c([nH]c3ccccc32)c1=O | 4.3% | 49 | 6 | -0.1 | -11% | 47% | -0.6
O=C(CN1C(=O)c2ccccc2C1=O)Nc1sc2c(c1C(=O)NCc1ccco1)CCCC2 | 1.2% | 10 | 22 | 5.6 | -3% | -2.3% | 0.4
Cc1ccc(C(=O)OCC(=O)Nc2cccc(S(=O)(=O)NC3=NCCCCC3)c2)c(C)c1 | 0.3% | 2 | -6 | 1.9 | 8% | -3.3% | -0.3
COCCNC(=O)c1ccc2c(=O)n(CCc3ccccc3)c(SCC(=O)CC(=O)OC)nc2c1 | 3.0% | -6 | / | / | / | -5.4% | -0.1
COc1ccccc1CNS(=O)(=O)c1cc(C(=O)NCc2ccccn2)c(Cl)cc1Cl | 4.6% | 10 | 0 | / | / | / | 1.1
O=C(CSc1nnc(CNC(=O)c2ccco2)o1)c1ccc(Cl)cc1 | -0.9% | 9 | 3 | 5.0 | -8% | -2.5% | -0.7
O=C(Nc1nnc(-c2ccc(Cl)s2)o1)C1CCCCC1 | -0.9% | 2 | / | / | / | -16% | -0.8
CC(=O)Nc1cnc(NC(=O)c2cccc(F)c2)cc1C | -1.1% | -24 | -2 | -1.4 | 11% | 3.1% | 2.1
CSCC(=O)NC1CCCc2c1cnn2-c1ccc(C)c(C)c1 (centres undefined) | 0.6% | 38 | -5 | -6.9 | 0% | / | 0.0
O=C(COC(=O)c1cccc(F)c1)Nc1cccc(S(=O)(=O)N2CCCCC2)c1 | -1.2% | -1 | / | / | / | -0.2% | 0.8
COc1cccc(CCNC(=O)c2ccc(OC)c(OC3CCN(C(C)C)CC3)c2)c1 | 1.8% | -6 | -13 | / | 8% | -5.2% | 1.1
COc1ccc(CNC(=O)C2CCN(c3nc4ccccc4[nH]3)CC2)c(OC)c1 | -0.5% | 54 | / | / | / | 1.9% | 1.8
O=c1cc(-c2ccccc2)oc2cc(O)cc(O)c12 | -0.5% | 34 | / | ? | 6%&-13%&-18%&1% | -2.1% | 1.2
O=C(O)Cn1nnc2ccccc21 | 0.4% | / | -15 | 2.0 | 10% | 0.0% | /
COc1cc(NC(=O)C2CCN(S(=O)(=O)c3cccnc3)CC2)cc(OC)c1OC | -0.5% | 14 | -2 | -3.1 | -4% | -5.1% | 0.5
CCc1ccc(NC(=O)C(=O)NCC2CCCN2S(=O)(=O)c2ccccc2)cc1 (centres undefined) | -2.0% | 3 | -9 | / | / | -22% | 1.9
CCc1nnc(NC(=O)c2cc(Cl)ccn2)s1 | 2.0% | 23 | 29 | -1.9 | -25% | / | 0.8
COc1ccc(CNC(=O)C[C@H]2C[C@H](C(=O)N(C(C)C)C(C)C)[C@@]3(C)c4[nH]c5cc(CCC(=O)N(C)C)ccc5c4CCN3C2=O)cc1OC | -0.4% | 2 | / | / | / | -4.5% | -0.6
COc1ccc(NC(=O)CN(C)C(=O)C2CSC3(C)CCC(=O)N23)cc1 (centres undefined) | -0.9% | -3 | -1 | / | / | -0.6% | -0.2
C#CCNC(=O)C[C@@H]1C[C@@]2(C(=O)OC)CCCCC=C2N(CCC2=CCCCC2)C1=O | 0.0% | / | / | / | / | 0.5% | -0.8
COc1ccc(CNC(=O)CSCc2nc(-c3ccccc3C)oc2C)cc1 | 0.0% | 18 | / | / | / | -2.1% | 3.4
COc1ccc(Cl)cc1NC(=O)c1cc(-c2cc(C)ccc2O)n[nH]1 | 1.2% | -6 | -5 | 5.2 | 24% | / | 0.0
CCNc1ccc(/C=C/c2ccnc3ccccc23)cc1 | 2.7% | / | / | / | / | 1.4% | 19
CC(C)CNC(=S)N1CCC(c2nc(-c3ccc(F)cc3)no2)CC1 | 1.7% | 14 | -15 | 3.6 | 5% | -0.4% | -0.7
Cc1ccc(N(C(=O)c2snc(C(N)=O)c2N)C(C(=O)NCC2CCCO2)c2ccc3ncccc3c2)cc1 (centres undefined) | -1.7% | 13 | 3 | -1.8 | 15% | / | 0.7
O=S(=O)(c1ccc(Cl)cc1)N1CCC(n2cccc2)CC1 | 3.3% | -24 | -11 | -2.8 | 0% | / | 1.8

High-throughput results: PubChem BioAssay, National Center for Advancing Translational Sciences (NCATS)
